26S disassembly – inhibitors of ATP-driven 26S proteasome dissociation, primary screen, biochemical, bead-based flow cytometry, GFP-tagged proteasome | anti-FLAG beads, GFP-proteasome disassembly | inhibition of disassembly, % (test concentration not listed) | 24,000 compounds, 0.2% hits;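 active means above 40%; inconclusive means likely self-fluorescent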;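 further: plate controls were ATP control with full disassembly for no effect and ATP-gamma-S intact proteasomes for full effect; higher percent means more bead fluorescence retained so stronger block of disassembly; stock transfer was 100 nL into about 10 µL; wells with too few beads may also be inconclusive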
VCAM-1 up – enhancers of VCAM-1 display on endothelial cells, cell-based, plate reader, pooled HUVEC, TNFa stimulus (AID 455) | 10,000 compounds, 0.2% hits | augmentation, % at 5 µM | HUVEC TNFa-induced VCAM-1 immunofluorescence, plate reader; numbers were filed only for top-ranked candidate wells;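 active means a compound raising TNF-alpha-driven VCAM-1 surface staining, with its hit status upheld on visual or statistical review; inactive means the rest, including hits rejected on review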;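 further: 0% = TNFa with vehicle and 100% = strongest image-checked hit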
Starred values were filed as active, the others as inactive; i = inactive; u = inconclusive; x = no result given. Some of the compounds tested; rates above refer to the full screens.

mol,VCAM-1 up,26S disassembly
COc1ccc(C2CC(c3cccc(Cl)c3)n3nc(N)nc3N2)cc1 (stereo unspecified),x,2.7
Cc1cc2ccccn2c1C(=O)c1ccncc1,i,-0.8
O=C(NCc1ccccn1)Nc1ccc2c(c1)OCO2,i,-1.4
Cc1ccc(C(c2sc3nc(C)nn3c2O)N2CCN(c3ccccc3)CC2)cc1 (stereo unspecified),x,-0.5
CCc1nnc(SCC(=O)NC2CCCCC2)nc1CC,i,0.7
Cc1ccccc1N1OC2C(=O)N(c3ccc(F)cc3)C(=O)C2C1c1ccccn1 (stereo unspecified),i,-1.6
NC(=O)C1CCN(C(=O)C2c3ccccc3C(=O)N3CCc4ccccc4C23)CC1 (stereo unspecified),x,-0.9
CCN1C(=O)c2cccc3c(S(=O)(=O)Nc4ccccc4OC)ccc1c23,x,-2.2
COCCNC(=O)C(c1ccc(O)cc1)N(Cc1ccco1)C(=O)CCC(=O)Nc1nccs1 (stereo unspecified),i,0.7
Cc1ccc(-c2nc3cc(NC(=O)C(C)C)ccc3o2)cc1C,i,2.9
O=C(OCn1nnc2ccccc2c1=O)c1ccc(Br)o1,x,0.3
O=C(CSc1nc(N2CCCCC2)nc(N2CCCCC2)n1)Nc1nccs1,i,-0.1
CCOc1ccc(N(CC(=O)NC(C)CC)S(=O)(=O)c2c(C)noc2C)cc1 (stereo unspecified),x,-0.6
Cc1c(C(=O)OCCOc2ccccc2)[nH]c2c1C(=O)CCC2,x,0.2
CCOc1ccc(CNC(=O)CCn2c(=O)oc3ccccc32)cc1OC,x,-0.3
Cc1cc2cc(CNC(=O)Nc3ccccc3)ccc2n1C,x,u
C/C(N)=C(/C#N)C(=O)COC(=O)COc1ccc(Cl)cc1,i,1.6
CCC(C)C(NC(=O)C1CCC(C)CC1)C(=O)NCc1cccnc1 (stereo unspecified),i,-0.7
COc1ccc(Br)cc1CNC(=O)C1CCN(S(=O)(=O)N2CCCC2)CC1,x,5.2
CCCn1c(SCC(=O)N2CCc3ccccc3C2)nc2c1c(=O)n(C)c(=O)n2C,i,-0.7
O=C(NCCN1CCOCC1)c1cc2sccc2n1Cc1ccc(Cl)cc1,x,1.3
Cn1nnnc1SCC(=O)N1CCN(c2ccccc2)CC1,i,0.1
CCOc1cc2c(C)cc(=O)oc2cc1Cl,x,1.5
Cc1cccnc1NC(=O)C1CCN(S(=O)(=O)c2ccc3c(c2)CCC(=O)N3)CC1,x,0.4
Cn1c(=O)[nH]c(=O)c2[nH]c(CN3CCN(C(=O)c4ccco4)CC3)nc21,i,-6.0

In a second layout: entries from further up
CCOc1ccc(CNC(=O)CCn2c(=O)oc3ccccc32)cc1OC
  VCAM-1 up: x	26S disassembly: -0.3

Cc1cc2cc(CNC(=O)Nc3ccccc3)ccc2n1C
  VCAM-1 up: x	26S disassembly: u

C/C(N)=C(/C#N)C(=O)COC(=O)COc1ccc(Cl)cc1
  VCAM-1 up: i	26S disassembly: 1.6

CCC(C)C(NC(=O)C1CCC(C)CC1)C(=O)NCc1cccnc1 (stereo unspecified)
  VCAM-1 up: i	26S disassembly: -0.7

(cont.)
mol,VCAM-1 up,26S disassembly
Cc1cc(C)n(CCc2nc3c4ccccc4n(CC(=O)Nc4ccc(Cl)cc4F)c(=O)n3n2)n1,x,0.4
COc1ccc(CCNC(=O)C2CCCN(Cc3nc(-c4ccccc4C)oc3C)C2)cc1OC (stereo unspecified),x,0.4
COC(=O)CNC(=O)Cn1ccc2ccccc2c1=O,x,0.3
Cn1cccc1Cc1nnc(SCC(=O)Nc2nccs2)n1CCc1ccccc1,x,2.6
COc1cccc(NC(=O)CN2CCN(c3ccc(F)cc3)CC2)c1,x,2.4
CCOC(=O)c1cc(C(C)(C)C)oc1CN,i,0.2
CCN(CC)S(=O)(=O)c1cccc(C(=O)Nc2ccccc2C(=O)N2CCOCC2)c1,x,0.5
Cc1ccc(Cl)cc1NC(=O)c1ocnc1C,x,-1.9
Cc1ccccc1Cn1c2ccccc2c2cn[nH]c(=O)c21,x,3.7
COC(=O)c1ccc(C2CC(=O)NC3=C2C(=O)CCC3)cc1 (stereo unspecified),x,-2.5
CN1CCN(S(=O)(=O)c2ccc(NC(=O)c3ccc(F)cc3)cc2)CC1,i,4.0
CCSc1nc(C)nc2c1oc1ccccc12,i,-1.1
COc1ccc(-c2cc(C(=O)N3CCN(Cc4ccccc4)CC3)no2)cc1OC,i,0.7
O=C(NCc1ccccc1)c1c[nH]c2ccc(S(=O)(=O)Nc3ccc4c(c3)OCCO4)cc2c1=O,x,-0.3
O=C(Nc1nncs1)c1ccccc1NS(=O)(=O)c1cccs1,i,0.1
O=C1c2ccccc2C(=O)N1CC(O)COCc1ccccc1 (stereo unspecified),x,0.7
CC(C)COC(=O)C1C(=O)CC(C)(O)C(C(=O)OCC(C)C)C1c1cccnc1 (stereo unspecified),x,-2.3
CCOC(=O)C1=C(c2ccccc2)NC(SC)=C(C#N)C1c1ccco1 (stereo unspecified),x,-0.1
O=C(Cn1nc(-c2ccc(Cl)cc2)ccc1=O)NCCCN1CCN(Cc2ccccc2)CC1,i,1.4
COc1cc(OC)c(NC(=O)CCNS(=O)(=O)c2cc(Br)cnc2N)cc1Cl,x,2.2
Cc1ccccc1CN1CCN(CC(=O)NCc2ccc3c(c2)OCO3)C1=O,x,3.6
CCOC(=O)CNC(=O)CN1CCCN(S(=O)(=O)c2ccc(Br)s2)CC1,x,0.7
COc1cccc(-c2cc(C(=O)Nc3c(C)nn(Cc4ccccc4)c3C)no2)c1,i,-0.3
CCOC(=O)c1cc(-c2ccc(C)cc2)n(CC(=O)NCc2ccco2)c1C,x,0.2
c1cncc(C2Nc3ccccc3-c3nc4ccccc4n32)c1 (stereo unspecified),i,0.1

Next section; it opens with the three that closed the last part.
mol,VCAM-1 up,26S disassembly
COc1cccc(-c2cc(C(=O)Nc3c(C)nn(Cc4ccccc4)c3C)no2)c1,i,-0.3
CCOC(=O)c1cc(-c2ccc(C)cc2)n(CC(=O)NCc2ccco2)c1C,x,0.2
c1cncc(C2Nc3ccccc3-c3nc4ccccc4n32)c1 (stereo unspecified),i,0.1
CCOC(=O)c1c(C)c(C(=O)Nc2ccccc2)c(C)n1CC,x,-1.3
Cc1nc2c(ccc3nc(NC(=O)c4ccc5c(c4)OCCO5)sc32)s1,x,-0.4
COc1ccc(N2CCN(C(=O)Cn3c(=O)[nH]c4ccsc4c3=O)CC2)cc1,x,-0.3
Cc1cccc2sc(NC(=O)CN(C)S(=O)(=O)c3cccs3)nc12,i,1.7
CCCN1CC23C=CC(O2)C(C(=O)O)C3C1=O (stereo unspecified),i,0.0
Cc1ccc(N(C(=O)C2CCCO2)C2C=CS(=O)(=O)C2)cc1Cl (stereo unspecified),x,-1.9
CCCCn1c(CN2CCN(c3ccccc3)CC2)nc2c1c(=O)n(C)c(=O)n2C,i,-0.3
O=C(CCn1c(=O)sc2ccccc21)NCc1cccs1,x,-1.8
CCOc1ccccc1C(=O)Nc1ccc2nc(N3CCN(c4ncccn4)CC3)cc(C)c2c1,x,-1.0
Cc1c2c(nc3c(C(=O)NC4CC4)cnn13)CCCC2,x,0.3
COc1cc2nc(N3CCN(C(=O)c4ccco4)CC3)nc(N)c2cc1OC,i,0.2
Cc1cc(=O)n2nc(-c3ccccc3)sc2n1,i,-2.2
O=C(NC1CCCC1)C1c2ccccc2C(=O)N1CCCN1CCOCC1 (stereo unspecified),x,-0.8
CCOc1ccc(OCC)c(NC(=O)CNS(=O)(=O)c2cccs2)c1,x,0.5
CCCCc1cc(=O)oc2cc(OCC(=O)N(CC)CC)c(Cl)cc12,i,-1.3
Cc1ccccc1Cn1nc(C)c(NC(=O)c2noc3c2CC(C(C)(C)C)CC3)c1C (stereo unspecified),x,1.6
Fc1cccc(C2CC(c3cccc(Br)c3)Nc3nnnn32)c1 (stereo unspecified),x,-1.2
CCc1ccc(NC(=O)Cn2c(=O)oc3cc(S(=O)(=O)N4CCOCC4)ccc32)cc1,x,-0.3
COc1ccccc1-c1c(C)nn2c(N3CCCCCC3)cc(C)nc12,x,0.7
COc1ccc(NC(=O)c2ccc(COc3ccccc3Br)o2)cc1OC,x,u
COc1ccc(-c2nc(CS(=O)CC(=O)NCc3ccc4c(c3)OCO4)c(C)o2)cc1 (stereo unspecified),x,0.2
O=C(C1CCN(S(=O)(=O)c2ccc(-n3cnnn3)cc2)CC1)N1CCN(c2ccccc2)CC1,i,0.5
CC1CN=C(c2cccn2Cc2ccc(F)cc2Cl)O1 (stereo unspecified),x,0.8
COc1ccc(N2C(=O)C3CCCN3C2c2cccs2)cc1 (stereo unspecified),x,2.6
CCOC(=O)CSc1nnc(CNC(=O)c2ccc(OC)cc2)n1-c1ccc(OC)cc1,x,-0.8
CC(C)CCN(C)C1CCN(S(=O)(=O)c2cccc(C(F)(F)F)c2)CC1,x,-0.1
O=C(O)CC12CSc3[nH]c(=O)sc3C1c1ccccc1OC2=O (stereo unspecified),x,-0.9
Cc1c(C#N)c2ccccc2n1CC(=O)N1CCc2ccccc2C1,i,1.9
CC1Cc2nc(SCC(=O)Nc3nccs3)n(C)c(=O)c2S1 (stereo unspecified),i,4.2
O=C(CN1CCN(c2ccc(Cl)cc2)CC1)c1ccc2c(c1)OCO2,x,3.2
COC(=O)C1(C)NC(c2cccs2)C2C(=O)N(c3ccccc3F)C(=O)C21 (stereo unspecified),i,-0.3
CC1CCCCN1CCCNC(=O)C1CCN(c2nc3ccccc3o2)CC1 (stereo unspecified),x,-3.2
COc1ccc(N2C(=O)CC(N3CCN(c4ccccc4F)CC3)C2=O)cc1 (stereo unspecified),i,-0.2
Cc1ccccc1Cn1cc(/C=N/n2cnnc2)c2ccccc21,i,2.1
CCOc1ccccc1NC(=O)C1CCN(S(=O)(=O)c2c(C)noc2C)CC1,x,0.3
Cc1cc(NC(=O)c2cc(C)on2)n(-c2ccccc2)n1,x,0.8
CC(C)(C)C(=O)/C=C(\N)c1ccccn1,i,0.3
COc1ccc(-n2c(Cc3cccn3C)nnc2SCC(=O)Nc2ccc(F)cc2)cc1,x,-0.7
CCOC(=O)N1CCN(C(=O)C2CCN(c3ncnc4c3sc3cccc(F)c34)CC2)CC1,x,3.0
CCN(CC)S(=O)(=O)c1ccc2[nH]cc(C(=O)NCCN3CCCCC3C)c(=O)c2c1 (stereo unspecified),x,-2.4
Cc1cc(=O)[nH]c(SCc2nc3ncccn3c2Br)n1,i,-0.3
N#Cc1c(-c2ccco2)cc(C2CC2)nc1SCC(=O)c1ccccc1,x,1.4
CCN1CCN(C(=O)c2cn(CC)c3ccc(S(=O)(=O)N(C)C)cc3c2=O)CC1,i,-0.1
COc1ccc(OC)c(C2C3=C(CCCC3=O)Nc3nc4ccccc4n32)c1 (stereo unspecified),x,-0.2
CCOc1ccccc1OCCn1nnc2ccccc21,i,2.0
CCOc1cc(C2C(C#N)=C(N)OC(C)=C2C(C)=O)cc(Br)c1O (stereo unspecified),i,2.7
Cc1cc(N2C(=O)C(O)=C(C(=O)c3ccc(C)o3)C2c2cccs2)no1 (stereo unspecified),i,-0.2
O=S(=O)(CCOc1ccccc1)c1nc2ccccc2[nH]1,i,-2.3
O=C(NC1CCCCCC1)C1c2ccccc2C(=O)N1C1CC1 (stereo unspecified),x,1.7
O=C(Nc1ccc(CN2CCOCC2)cc1)c1cc2ccccn2n1,i,2.3

Other results.
mol,VCAM-1 up,26S disassembly
Cc1ccccc1-c1nc(CN2CCC(C(=O)O)CC2)c(C)o1,x,-2.3
N#Cc1c2n(c(=O)[nH]c1=O)CCCCC2,i,1.2
Cc1nc2ccc(S(=O)(=O)NCC(=O)N3CCc4ccccc43)cc2s1,x,0.7
Cc1c(N(C)C(=O)C23CC4CC(CC(C4)C2)C3)c(=O)n(-c2ccccc2)n1C,x,-0.7
COc1ccc(C2C(C(C)=O)=C(C)N=c3s/c(=C\c4ccc5c(c4)OCO5)c(=O)n32)c(OC)c1 (stereo unspecified),i,1.4
COc1ccc(-c2cc(C(F)(F)F)nc(NC3CCCC3)n2)cc1OC,x,1.0
COc1ccc(N(CC(=O)N2CCc3ccccc32)S(=O)(=O)c2c(C)noc2C)cc1,x,-1.4
COC(=O)C(C)Sc1nnc2n(-c3cccc(C)c3)c(=O)c3c4c(sc3n12)CCCC4 (stereo unspecified),i,-0.5
Cn1nnnc1SCC1=C(C(=O)O)N2C(=O)[C@@H](NC(=O)[C@H](O)c3ccccc3)[C@H]2SC1,i,0.3
CCOC(=O)c1c(C)c(C(=O)NC2CCCCC2)c(C)n1CC,x,0.6
COCCn1c(=S)[nH]c2ccc(N(C)C)cc2c1=O,x,-3.0
O=C(NCc1n[nH]c(=S)n1-c1ccccc1)c1ccco1,x,-1.8
CCCCCn1c(SCc2ccncc2)nc2cc(C(=O)NCc3ccco3)ccc2c1=O,x,-1.2
C=CCn1c(SCC(=O)c2ccccc2)nnc1-c1ccc2c(c1)OCO2,i,0.3
O=C1CCCc2c1cc(C(=O)NC1CCSC1=O)c(=O)n2-c1ccccc1 (stereo unspecified),x,1.5
